TRPML1 blocker = human mucolipin-1 channel inhibition. Q9GZU1. TRPML1-inducible cells, Ca2+ dye fluorescence, FDSS; hits give low values; inhibition of EC80 agonist-evoked calcium signal. activity change, negative = inhibition, % (test concentration not listed). 0.02% of 390,000 active. AID 624415; in the data active means activity change below about -50%; inconclusive means about -30% to -50%; inactive means above about -30%;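 also: stimulus is agonist 54-4 at its EC80 concentration; % is scaled to controls: 0 for no effect and ±100 for the full control effect; compound concentration not given in the record; the text of the record puts the active cut at -80%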
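TRPML1-DL cells, Tet-induced overnight (~16 h, 37 °C) at 1,500 cells/well, were loaded with Ca8 no-wash dye plus quencher for 45-90 min at room temperature. Compounds were pinned during FDSS kinetic reading; agonist 54-4 at EC80 (4 uM final) then added.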
Six1-Eya2 blk = inhibitors of human Six1/Eya2 interaction | 0.56% of 360,000 active | AID 651725 | activity change, % (concentration not given with the values) | AlphaScreen GST-Six1/His-Eya2 binding, biochemical; hits give low values; control for the full effect not named in the record | Q15475+O00167; in the data active = activity change below about -65%; inconclusive = about -30% to -65%; inactive = above about -30%; also: % is scaled to controls: 0 for no effect and ±100 for the full control effect
Target sequence (O00167 whole entry, looked up): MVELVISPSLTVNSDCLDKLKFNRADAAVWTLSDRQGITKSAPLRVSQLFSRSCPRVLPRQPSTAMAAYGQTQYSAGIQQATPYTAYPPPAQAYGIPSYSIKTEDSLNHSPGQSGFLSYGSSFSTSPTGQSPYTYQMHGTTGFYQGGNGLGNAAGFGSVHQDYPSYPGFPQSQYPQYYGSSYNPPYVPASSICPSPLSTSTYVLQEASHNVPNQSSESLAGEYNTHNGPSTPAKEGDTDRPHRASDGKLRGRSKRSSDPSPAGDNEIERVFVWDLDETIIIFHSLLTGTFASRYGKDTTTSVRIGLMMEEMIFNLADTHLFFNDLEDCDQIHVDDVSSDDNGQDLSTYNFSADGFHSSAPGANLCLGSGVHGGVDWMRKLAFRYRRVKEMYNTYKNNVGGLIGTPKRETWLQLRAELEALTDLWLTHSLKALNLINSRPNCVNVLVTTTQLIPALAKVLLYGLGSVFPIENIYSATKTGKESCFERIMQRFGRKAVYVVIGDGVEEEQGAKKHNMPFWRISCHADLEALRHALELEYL
Target sequence (Q15475 whole entry, looked up): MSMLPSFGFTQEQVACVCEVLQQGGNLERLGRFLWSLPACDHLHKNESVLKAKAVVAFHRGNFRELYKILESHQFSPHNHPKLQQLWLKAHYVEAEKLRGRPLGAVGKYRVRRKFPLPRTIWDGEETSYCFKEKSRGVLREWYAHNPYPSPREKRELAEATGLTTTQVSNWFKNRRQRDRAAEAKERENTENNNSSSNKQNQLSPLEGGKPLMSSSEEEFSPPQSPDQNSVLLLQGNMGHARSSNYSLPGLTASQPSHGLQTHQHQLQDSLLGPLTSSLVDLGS
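Compounds are tested against tagged Six1 and Eya2 proteins bridged by glutathione donor and nickel acceptor beads; after a one-hour incubation at 37 °C without light, AlphaScreen emission is recorded.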
D2 agonist = human D2 receptor agonism in beta-arrestin assay; P14416; DiscoveRx PathHunter D2 beta-arrestin, luminescence, 90 min; 100% = 57 uM dopamine signal; activation, % (concentration not given with the values); 0.084% of 360,000 active; AID 624465; in the data active = activation above about 40%; inconclusive = about 15% to 40%; inactive = below about 15%; also: compound concentration not given in the record; the text of the record calls up to 30% inactive
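Agonist mode: compounds alone added to overnight-plated D2 PathHunter cells for 90 min at 37 C, with 57 uM final dopamine (EC100) defining full response. Beta-arrestin recruitment detected by chemiluminescent reagent, read after 1 h at ambient temperature.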
PINK1 modulator = changes PINK1 expression; PINK1 immunofluorescence, high-content cytometry, 24 h; Potency, µM (titrated, usually from 76.6 µM), for the others: at the top dose activation (PINK1 increase), hits mostly activators; 0.2% of 410,000 active; AID 624263; active = well fitted activation curve with a large enough effect; inconclusive = small, poorly fitted or top-dose-only effect; inactive = flat fitted curve, though single readings scatter; cell line not stated here;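 also: potency is read from the fitted curve at half-maximal effect; % of control where 0% means no effect; nearly all actives have a fitted effect of over 65% in size; a mitochondrial uncoupler was the plate control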
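Stable cell line, 250 cells/well, 12 h attachment; compounds pinned at 5 concentrations, 24 h; CCCP control. Fixed with nuclear dye, primary antibodies 12 h at 10 degrees C, secondary plus cell stain; laser-scanning cytometer read.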
TRPML1 ag = human mucolipin-1 channel agonism; Q9GZU1; TRPML1-expressing cells, Ca2+ dye fluorescence, FDSS; host cell line not named in the record; reference of the full effect not given here; activation, % (concentration not given with the values); 0.12% of 410,000 active; AID 624414; in the data active = activation above about 50%; inconclusive = about 30% to 50%; inactive = below about 30%; also: 0% is about no effect; the text of the record puts the active cut at 80%
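Kinetic FDSS Ca2+ read in Tet-induced TRPML1-DL cells (ABD Ca8 dye plus quencher, 45-90 min RT loading): baseline, then compound, then 110 s agonist window; EC80 agonist 54-4 at 4uM final added afterwards for a 110 s antagonist window.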
D2 potentiator = potentiates the human D2 dopamine receptor allosterically; DiscoveRx D2 beta-arrestin cells, luminescence, 90 min; 100% = 57 uM dopamine signal; potentiation, % (no concentration beside the values); 0.23% of 360,000 active; AID 624464; active = potentiation of 50% or more; inconclusive = 30% to 50%; inactive = 30% or less;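 also: compound concentration not given in the record; tested on top of an EC20 dose of dopamine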
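PathHunter D2 cells, attached overnight at 37 deg C, received compound in DMSO plus dopamine at EC20 (50 nM final) for 90 min at 37 deg C. Beta-arrestin recruitment was read as luminescence after 1 h with detection reagent at ambient temperature.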
Numbers without * were called inactive; ? = inconclusive; nt = no result given; & = joins results of further samples; [ ] = another dose, or the depositor's remark. No enrichment for hits. Share with any hit: about 1%.

Fields: TRPML1 blocker, Six1-Eya2 blk, D2 agonist, PINK1 modulator, TRPML1 ag, D2 potentiator
(1) Cc1ccc(NCC(=O)Nc2c(C)n(C)n(-c3ccccc3)c2=O)cc1S(=O)(=O)N(C)C
→ -14, 1, -2.9, 2.9%, -0.6, -5
(2) CCOC(=O)C1CCCN(C2CC(=O)N(c3cccc(C(F)(F)F)c3)C2=O)C1 (stereo unspecified)
→ 2, 6, -2.1, 0.9%, -0.3, -12
(3) Cc1onc(-c2ccccc2Cl)c1C(=O)Nc1ccc(Cl)cn1
→ -12, -3, -2.9, -1.3%, 2.6, -6
(4) COc1ccc(Cn2ccc3nc(C)c(C(=O)NCc4ccc(C)cc4)cc3c2=O)cc1
→ 15, nt, nt, 0.6%, 1.4, nt
(5) C[C@H](CO)N1C[C@H](C)[C@@H](CN(C)C(=O)Nc2ccc3c(c2)OCO3)Oc2c(NS(=O)(=O)c3ccc(F)cc3)cccc2C1=O
→ 6, 2, -0.7, 1.3%, -0.1, -3
(6) CC(C)[C@H](NC(=O)c1ccc(Cl)c([N+](=O)[O-])c1)C(=O)NCc1ccc(F)cc1
→ -14, 1, 0.9, ?, 0.7, -12
(7) CC(C)C1CC(C(F)(F)F)n2nc(C(=O)O)cc2N1 (stereo unspecified)
→ -5, -5, 0.5, 1.1%, 0.2, 0
(8) Fc1ccccc1N1CCN(Cc2cnc(Cl)s2)CC1
→ 9, 3, 52*, -0.8%, 0.9, ?
(9) COc1ccc(-n2nc(C(=O)Nc3ccccn3)c3c4ccccc4n(C)c3c2=O)cc1
→ -23, nt, nt, 0.5%, 1.2, nt
(10) Cc1ccc(CNC(=O)CSc2c3c(nc4cc(Cl)ccc24)CCCC3)o1
→ 18, -8, -3.7, 7.2%, -0.1, 1

Fields: TRPML1 blocker, Six1-Eya2 blk, D2 agonist, PINK1 modulator, TRPML1 ag, D2 potentiator
(11) CC1(C)CC(=O)C=C(C(=O)NC2CCCc3c2cnn3-c2cc(F)cc(F)c2)O1 (stereo unspecified)
→ 1, -4, -1.6, 2.0%, -0.6, -6
(12) Cc1ccc(S(=O)(=O)Nc2nc3ccccc3nc2NCc2ccco2)cc1C
→ -3, 5, 1.5, -2.6%, -0.3, -1
(13) O=C(CN1C(=O)NC2(CCCC2)C1=O)NNC(=O)c1ccc(Br)cc1
→ 1, -1, 0.4, -1.0%, 0.4, -21
(14) Cc1ccc(S(=O)(=O)/C(C#N)=C/c2c(N3CCC(C(N)=O)CC3)nc3ccccn3c2=O)cc1
→ 10, -16, -3.8, 3.6%, 0.3, -15
(15) COc1ccc(CN(C)C2c3ccccc3-c3ccccc32)cc1
→ -9, 8, -1.1, 13%, 3.4, -25
(16) Cc1ccccc1-c1cccc([C@@H]2C[C@H]3[C@H](CON3C)CN2Cc2ccccc2)c1
→ 74, -16, -1.3, 29%, 3.5, -7
(17) O=C(O)CNC(=O)CC1S/C(=N/N=C/c2ccccc2O)NC1=O (stereo unspecified)
→ -5, -16, -6.4, 0.7%, 0.0, -10
(18) COc1ccc(C/C(C)=N/NC(=S)Nc2ccccc2F)cc1
→ 1, -2, -2.4, 1.0%, -0.2, 0
(19) COc1ccc(C)cc1-n1nnnc1SC(C)C(=O)NC1CCCC1 (stereo unspecified)
→ 5, 1, -2.7, 6.7%, -1.4, -8
(20) COC(=O)c1sc(SC)c(S(=O)(=O)C(C)C)c1N/N=C(\C#N)S(=O)(=O)c1ccccn1
→ -1, -14, -6.8, 0.6%, -0.5, -4

21: COc1cccc(CNC(=O)c2cc(S(=O)(=O)N3CCCCC3)c[nH]2)c1
22: Cc1cc(O)cc(=O)n1Cc1ccccc1
23: COc1ccc(-c2noc(N3CCN(c4cccc(C)c4C)CC3)n2)cc1OC
24: Cc1ccc(NC(=S)NC2CCSc3ccccc32)cc1C (stereo unspecified)
25: Cn1c(Oc2ccc(F)cc2)nc2c1c(=O)n(Cc1ccccc1Cl)c(=O)n2C
26: COc1ccc(NC(=O)CCCc2nc3ccccc3c(=O)[nH]2)cc1Cl
27: CC(C(=O)c1ccc(Br)cc1)[n+]1cccc(NC(=O)c2ccccc2)c1 (stereo unspecified)
28: COC(=O)[C@H](Cc1ccccc1)NC(=O)c1cc(COc2c(F)cccc2F)on1
compound no.	21	22	23	24	25	26	27	28
TRPML1 blocker	1&11	38	17	-5	8	-4	25	32
Six1-Eya2 blk	6	1	nt	-24	nt	?	6	11
D2 agonist	-5.0	-3.2	nt	-4.2	nt	-1.2	-1.7	-5.1
PINK1 modulator	0.4%&0.0%	-0.4%	0.8%	?	1.3%	2.4%	-3.4%	-1.9%
TRPML1 ag	-0.9&1.1	3.3	-0.7	3.0	-1.0	0.1	-0.1	2.1
D2 potentiator	-1	-3	nt	-13	nt	-14	-38	-7

29: Cc1noc(C)c1NC(=O)N(C)C[C@H]1OCc2cn(nn2)CCCC(=O)N([C@@H](C)CO)C[C@@H]1C
30: COc1cccc(-c2ccc3c(N)c(C(=O)Nc4cc(F)ccc4F)sc3n2)c1
31: CCOc1ccccc1N(CC(=O)NCC1CCCO1)C(=O)CNS(=O)(=O)c1ccccc1 (stereo unspecified)
32: CC(=O)Nc1ccc(S(=O)(=O)N2CCC(NC(=O)c3ccco3)CC2)cc1
33: O=C(Cn1ncc2ccsc2c1=O)N1CCN(c2ccccc2F)CC1
34: CN1CCN(S(=O)(=O)c2cccc(C(=O)N(C)CC(=O)Nc3ccc(F)c(F)c3F)c2)CC1
35: COc1cccc(NC(=O)CN(C)C(=O)CSCc2nc3scc(-c4cccs4)c3c(=O)[nH]2)c1
36: CCCCn1c2ccccc2c2cc(CC(N)=O)ccc21
compound no.	29	30	31	32	33	34	35	36
TRPML1 blocker	-16	3	-7	-1	-9	15	13	17
Six1-Eya2 blk	0	nt	3	-6	nt	0	?	1
D2 agonist	-7.0	nt	6.2	-3.3	nt	-3.6	0.8	1.3
PINK1 modulator	-0.3%	0.3%	-0.6%	1.3%	-0.3%	-0.1%	-1.2%	0.5%
TRPML1 ag	0.0	0.4	1.4	-0.5	1.2	-0.6	0.6	3.3
D2 potentiator	-4	nt	7	9	nt	-5	-13	-7

37: CCOc1cc(-c2nnc(SCC(=O)Nc3ccc(F)c(F)c3)nc2-c2ccc(OC)c(OCC)c2)ccc1OC
38: CSc1nsc(SC)c1NC(=O)OCC1CCCO1 (stereo unspecified)
39: Cc1nn(C(=O)N(C)C)c(C)c1CN1C(=O)c2ccccc2C1=O
40: CC(C)CN1C(=O)CC(Sc2ccccc2C(=O)O)C1=O (stereo unspecified)
41: CC1=C(C#N)C2C(/C1=N/O)C2(C)C (stereo unspecified)
42: O=C(COC(=O)/C=C/c1ccco1)NCCc1ccccc1
compound no.	37	38	39	40	41	42
TRPML1 blocker	-9	-19	-3	-8	-6	9
Six1-Eya2 blk	nt	2	-3	2	0	1
D2 agonist	nt	-3.7	-1.0	-3.2	0.3	2.7
PINK1 modulator	13%	4.8%[38.3 µM]	1.4%	-3.1%[38.3 µM]	-0.7%[38.3 µM]	-0.1%
TRPML1 ag	1.2	-0.5	-0.6	0.0	0.0	0.6
D2 potentiator	nt	-7	-5	-2	-5	0

In the list so far, 13 contain fluorine.
2: CCOC(=O)C1CCCN(C2CC(=O)N(c3cccc(C(F)(F)F)c3)C2=O)C1 (stereo unspecified)
5: C[C@H](CO)N1C[C@H](C)[C@@H](CN(C)C(=O)Nc2ccc3c(c2)OCO3)Oc2c(NS(=O)(=O)c3ccc(F)cc3)cccc2C1=O
6: CC(C)[C@H](NC(=O)c1ccc(Cl)c([N+](=O)[O-])c1)C(=O)NCc1ccc(F)cc1
7: CC(C)C1CC(C(F)(F)F)n2nc(C(=O)O)cc2N1 (stereo unspecified)
8: Fc1ccccc1N1CCN(Cc2cnc(Cl)s2)CC1
11: CC1(C)CC(=O)C=C(C(=O)NC2CCCc3c2cnn3-c2cc(F)cc(F)c2)O1 (stereo unspecified)
18: COc1ccc(C/C(C)=N/NC(=S)Nc2ccccc2F)cc1
25: Cn1c(Oc2ccc(F)cc2)nc2c1c(=O)n(Cc1ccccc1Cl)c(=O)n2C
28: COC(=O)[C@H](Cc1ccccc1)NC(=O)c1cc(COc2c(F)cccc2F)on1
30: COc1cccc(-c2ccc3c(N)c(C(=O)Nc4cc(F)ccc4F)sc3n2)c1
compound no.	2	5	6	7	8	11	18	25	28	30
TRPML1 blocker	2	6	-14	-5	9	1	1	8	32	3
Six1-Eya2 blk	6	2	1	-5	3	-4	-2	nt	11	nt
D2 agonist	-2.1	-0.7	0.9	0.5	52*	-1.6	-2.4	nt	-5.1	nt
PINK1 modulator	0.9%	1.3%	?	1.1%	-0.8%	2.0%	1.0%	1.3%	-1.9%	0.3%
TRPML1 ag	-0.3	-0.1	0.7	0.2	0.9	-0.6	-0.2	-1.0	2.1	0.4
D2 potentiator	-12	-3	-12	0	?	-6	0	nt	-7	nt

33: O=C(Cn1ncc2ccsc2c1=O)N1CCN(c2ccccc2F)CC1
34: CN1CCN(S(=O)(=O)c2cccc(C(=O)N(C)CC(=O)Nc3ccc(F)c(F)c3F)c2)CC1
37: CCOc1cc(-c2nnc(SCC(=O)Nc3ccc(F)c(F)c3)nc2-c2ccc(OC)c(OCC)c2)ccc1OC
compound no.	33	34	37
TRPML1 blocker	-9	15	-9
Six1-Eya2 blk	nt	0	nt
D2 agonist	nt	-3.6	nt
PINK1 modulator	-0.3%	-0.1%	13%
TRPML1 ag	1.2	-0.6	1.2
D2 potentiator	nt	-5	nt

Bioassay records (PubChem BioAssay)
